# VDR inh: vitamin D3 receptor (human) inhibition. P11473. VDR-SRC2-3 peptide fluorescence polarization, 2 h. Potency, µM, for the others: max response, negative = inhibition, hits mostly inhibitors. 400,000 compounds, 0.93% hits. AID 504847; active means well fitted inhibition curve with a large enough effect; inconclusive means small, poorly fitted or top-dose-only effect, or another doubt; inactive means no such curve, though single readings can be large or run the other way; further: series mostly up to about 120 µM
# Target sequence (P11473 whole entry, looked up): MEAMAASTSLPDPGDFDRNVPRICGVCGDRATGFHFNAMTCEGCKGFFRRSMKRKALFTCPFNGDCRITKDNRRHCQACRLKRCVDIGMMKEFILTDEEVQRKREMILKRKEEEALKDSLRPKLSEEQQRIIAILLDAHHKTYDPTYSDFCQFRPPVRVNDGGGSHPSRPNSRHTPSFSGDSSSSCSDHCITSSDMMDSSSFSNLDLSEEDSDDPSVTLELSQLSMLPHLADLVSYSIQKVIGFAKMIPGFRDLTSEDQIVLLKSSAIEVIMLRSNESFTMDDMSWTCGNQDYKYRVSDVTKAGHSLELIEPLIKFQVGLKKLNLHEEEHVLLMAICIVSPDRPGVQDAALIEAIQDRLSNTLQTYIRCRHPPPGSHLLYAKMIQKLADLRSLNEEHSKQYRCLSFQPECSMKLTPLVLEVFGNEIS
#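 The screen uses fluorescence polarization to detect compounds that interfere with recruitment of the SRC2-3 coactivator peptide to VDR; plates are read after 2 h at room temperature.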
# Starred values were filed as active, the others as inactive; ? = inconclusive; & = joins results of further samples. On the % scale 0 is the no-effect control and ±100 the full control effect; potency means the concentration at half of the fitted maximal effect. Not all compounds are listed, so the mix of outcomes need not match the whole.
SMILES,VDR inh
CCCOc1cccc(C(=O)N(Cc2ccc(C)o2)C2CCS(=O)(=O)C2)c1 (stereo not given),6%
CC1(C)C(=O)N(c2ccccc2F)C(=O)c2ccccc21,15%
CCCCN1C(=O)NC(c2cccc([N+](=O)[O-])c2)C(C(=O)OCC)=C1C (stereo not given),-1%
Oc1csc(Cc2nc(-c3ccc(Br)cc3)cs2)n1,3%
O=C(COc1ccc(F)cc1)NNC(=O)Cn1ccc(C(F)(F)F)n1,-2%
COc1ccc(N2CCN(C3CCCN(C(=O)c4cccc(C)n4)C3)CC2)cc1 (stereo not given),14%
CN(C)C(CNC(=O)c1ccc([N+](=O)[O-])cc1Cl)c1ccco1 (stereo not given),-1%
Cc1nc(NC(=O)CSc2ccc(-c3nc4ccccc4[nH]3)cn2)sc1C,3%
O=C(O)c1cccc(Nc2nc(N3CCOCC3)nc(N3CCOCC3)n2)c1,2%
CCNc1ncc2nc(-c3cn(C)c4ccccc34)c(=O)n(Cc3ccc(F)cc3)c2n1,0%
COC(=O)C1C(=O)c2c([nH]c(C(=O)OCCOC(C)C)c2C)CC1C (stereo not given),7%
CC1CCC(NC(=O)COC(=O)c2ccc3ncsc3c2)CC1 (stereo not given),-2%
COc1ccc(C[C@@H]2OC3(C=CC(=O)C=C3)O[C@H]2Cc2ccc(OC)cc2)cc1,?
CS(=O)(=O)c1ccc2nc(NC(=O)Nc3cccc(Cl)c3)sc2c1,22%
NC(=O)CSc1nnc(COc2ccc3ccccc3c2)o1,-11%
CCn1c(SCC(=O)c2cc(C)n(CC3CCCO3)c2C)nc2ccccc21 (stereo not given),-12%
Cc1cccc(-c2nc3nc(C)cc(NCc4ccccc4Cl)n3n2)c1,9%
Cc1noc(C)c1COc1ccccc1C(=O)N1CCN(S(=O)(=O)c2ccccc2C#N)CC1,-27%
CN1CCN(c2ccc(NC(=O)c3ccc(Oc4ccccc4)cc3)cc2)CC1,-5%
Cc1ccc(-n2[nH]c(C)c(C=Nc3ccc(C)cn3)c2=O)cc1,4%
CC1(CCc2ccccc2)NC(=O)N(CC(=O)N2CC(=O)Nc3ccccc32)C1=O (stereo not given),-2%
Cn1cnnc1SCC(=O)n1c2ccccc2c2ccccc21,16%
O=C(COc1ncnc2ccccc12)c1ccc2c(c1)OCCO2,8%
Cc1c(CC(C)C)nc(N)c(C#N)c1-c1ccccc1,5%
Cn1cccc1C(=O)OCc1ccc(F)cc1,-1%

# (further entries)
SMILES,VDR inh
O=C(COC(=O)CNC(=O)c1ccc(Cl)c([N+](=O)[O-])c1)NCC1CCCO1 (stereo not given),6%
COCn1c(C(O)c2ccccc2)cc2ccccc21 (stereo not given),-13%
CCN1CCN(c2ccc(NC(=O)c3ccc(Br)o3)cc2)CC1,2%
COc1ccc(CN(C)C(=O)COC(=O)c2ccc(-c3ccccc3)cc2)c(OC)c1OC,1%
COc1cccc2c1C(=O)CC1C2CCC2CC(=O)CCC21C (stereo not given),4%
CN(C)C(=S)NC(=O)C(c1ccccc1)c1ccccc1,-8%
CC(C)(C)NC(=O)COC(=O)c1ccc(S(=O)(=O)N2CCCCCC2)cc1,-19%
CN(Cc1nc2ccccc2n1C)S(C)(=O)=O,-12%
CCc1ccc(Sc2cc(C(=O)NCCCN3CCCC(C)C3)c3ccccc3n2)cc1 (stereo not given),2%
CCc1nn(CCCC(=O)N2CCC(C)CC2)c(=O)c2cc3occc3n12,1%
c1csc(C2Nc3cccc4cccc(c34)N2)c1,?
C/C(=N/NS(=O)(=O)c1ccc(C(C)C)cc1)c1ccncc1,-6%
Cc1ccccc1NS(=O)(=O)c1ccc(N2CCCC2=O)cc1,-10%
CCOc1ccc(NC(=O)CC(NCc2ccccn2)C(=O)O)cc1 (stereo not given),-4%
COc1ccc([N+](=O)[O-])cc1NC(=O)c1cccnc1,1%
CNC(=O)CCn1nc(-c2ccc(C)cc2)c2ccccc2c1=O,-21%
O=S(=O)(NCCC1=CCCCC1)c1cccc(Br)c1,11%
OCC1OC(Oc2c[nH]c3ccccc23)C(O)C(O)C1O (stereo not given),?
CCCOc1ccc(-c2c(=O)n(OCc3ccc([N+](=O)[O-])cc3)c3ccccc3[n+]2[O-])cc1,-30%
CC12CCC=CC1C(c1ccc3ccccc3c1C=Cc1ccccc1)N(Cc1ccccc1)C2=O (stereo not given),4%
COC(=O)C1=CN(CC2CCCO2)C=C(C(=O)OC)C1c1cc(OC)c(OC)c(OC)c1 (stereo not given),9%
CC(CN1CCOCC1)OC(=O)c1cccc(Br)c1 (stereo not given),5%
O=C(Nc1ccn(Cc2ccc(Cl)cc2)n1)c1ccccc1,-20%
CCCCc1cc2c(c(NC(=O)CC)n1)c(=O)oc1ccccc12,6%
Cn1nc(C(C)(C)C)c([N+](=O)[O-])c1C(=O)Nc1ccc(Br)cc1,3%

# New compounds follow
SMILES,VDR inh
O=C(C/C=N/OCc1ccc(Cl)cc1)c1cnc(-c2ccccc2)s1,-10%
CC(C)(C)OC(=O)N1CCC(C(=O)N[C@@H](Cc2ccccc2)C(=O)O)(c2ccccc2)CC1,-4%
CCC(C)n1c(=O)c(C(=O)Nc2ccccc2S(N)(=O)=O)c(O)c2ccccc21 (stereo not given),6%
Cc1ccc2[nH]c(=O)c(N3CCOCC3)c(-c3ccccc3)c2c1,-7%
CC(/C=C/c1ccco1)=N/NC(=O)CNc1ccccc1C,?
O=C(O)c1ccc(Oc2cccc([N+](=O)[O-])c2)cc1C(=O)O,-11%
Cc1ccc(N(C(=O)CNC(=O)c2ccco2)C(C(=O)NC2CCCC2)c2cccnc2)cc1C (stereo not given),0%
Cc1cccc(C)c1NC(=O)CN(C)C(=O)c1ccccc1SCC(=O)N1CCCC1,14%
CN(C)S(=O)(=O)N1CCC(c2ccc(F)cc2)C(COc2ccc3c(c2)OCO3)C1 (stereo not given),-12%
COc1ccc(C(=O)NNC(=O)CSc2nnnn2C)cc1,-12%
CC(=O)N1CCC2(CCN(Cc3cc(C(F)(F)F)cc(C(F)(F)F)c3)CC2)CC1,-20%
O=Cc1cccn1-c1sc2c(c1C(=O)O)CCCC2,-10%
COc1cc(CSc2ncc(CO)n2Cc2ccc(C)cc2)cc(OC)c1,21%
O=C(CCNc1cccc(F)c1)c1cc2ccccc2o1,?
Cc1cccc(CC2CC(=O)N(c3ccccc3)C2=O)c1 (stereo not given),13%
COc1ccc2c(c1)O[C@@H](c1ccc3c(c1)OCO3)[C@H](OC(=O)NC1CCCC1)C2=O,6%
CCCc1oc2ccc(NS(=O)(=O)c3ccc(OC)cc3)cc2c1C(=O)OCC,21%
CC(C)(C)c1nnc(NC(=O)c2cccs2)s1,2%
Cc1cccc(C)c1OCCCCc1c(C)n[nH]c1C,6%
COc1ccc2sc3ccccc3c(=O)c2c1OC,3%
Cc1cccc2c(C(=O)O)c3c(nc12)CCCCC3,-9%
CC(=O)NC1=NN(c2ccccc2)C(=O)C1,-5%
Cc1cccc(C(=O)N[C@H](C(=O)Nc2cc(S(=O)(=O)N3CCCCC3)ccc2C)C(C)C)c1,0%
O=C(O)/C=C\C(=O)Nc1ccc(Oc2ccccc2)cc1,12%
CCN1CCc2c(sc(NC(=O)c3ccc(S(=O)(=O)N(C)c4ccccc4)cc3)c2C(=O)NC)C1,?

# Additional structures follow.
SMILES,VDR inh
CCc1c(C)nc2c(C#N)c[nH]n2c1=O,-6%
COc1ccc(CNC(=O)c2ccc3c(c2)N(Cc2ccccc2)C(=O)c2ccccc2S3=O)cc1 (stereo not given),-7%
Clc1ccc2c(c1)C1OCCC1C(c1ccco1)N2 (stereo not given),-18%
CC1S/C(=N/N=C2CCC(C(C)(C)C)CC2)NC1=O (stereo not given),-20%
O=C(NCc1cccs1)C(NS(=O)(=O)c1cccc2nsnc12)c1ccccc1 (stereo not given),-9%
CCCCN(C(=O)CSc1nnc(-c2ccccc2)n1C)c1c(N)n(Cc2ccccc2)c(=O)[nH]c1=O,-9%
COc1ccc(OC)c(NC(=O)CCNS(=O)(=O)c2cccs2)c1,6%
O=[N+]([O-])c1cccc(CNC2CCCCCC2)c1,-7%
CC(C)(C)n1ncc2c(=O)n(Cc3ccc(Cl)cc3)cnc21,1%
CC1=C(C(=O)Nc2ccccc2)C(c2ccco2)C(C#N)=C(SCC(=O)Nc2cccc(C)c2C)N1 (stereo not given),-19%
Cc1cc(NC(=O)CSc2nnc(-c3ccco3)n2N)no1,6%
COc1ccc(-n2c(COc3cccc4ccccc34)nnc2SC(C)C(=O)O)cc1 (stereo not given),-7%
NS(=O)(=O)c1ccc(NC(=O)/C=C/c2cccc(Cl)c2)cc1,6%
COCCNC(=O)CCC1CCN(Cc2cccc(Oc3ccccc3)c2)CC1,-1%
Cc1nnc(NC(=O)CCCOc2ccccc2)s1,1%
CCN(CC)C(=O)c1ccccc1NS(=O)(=O)c1ccc(C)cc1,1%
CCn1c(C)nc2cc(NC(=O)Nc3cccc(C(C)=O)c3)ccc21,-3%
COc1ccc(-n2c(=O)c3c4c(sc3n3c(SC(C)C)nnc23)COC(C(C)C)C4)cc1 (stereo not given),4%
CCc1nc2ccc(C(=O)NCc3ccccc3C)cc2nc1CC,19%
O=C(CSc1n[nH]c(=O)n1C1CC1)Nc1cc(Cl)ccc1Oc1ccccc1,3%
Cc1c(C(=O)NC2CCCc3ccccc32)oc2ccc(S(=O)(=O)N3CCCC3)cc12 (stereo not given),-5%
Cc1ccc(C(=O)NN=C2CCCC2)cc1C,-5%
CCn1c(=S)[nH]c2c(c1=O)C(C)(C)Cc1ccccc1-2,-13%
Cc1cccc(OCC(=O)NC(Cc2c[nH]c3ccccc23)C(=O)O)c1C (stereo not given),8%&-4%
Cc1cccc(C(=O)NNC(=O)C2CCCO2)c1 (stereo not given),-5%

# The results go on:
SMILES,VDR inh
COC(=O)c1sccc1NC(=O)c1ccc(Cl)s1,14%
CC(Oc1ccc2c(-c3ccccc3)cc(=O)oc2c1)C(=O)O (stereo not given),-8%
CCCOc1ccc(C(=O)Nc2ccc(NC(=O)c3ccccc3)c(C)c2)cc1,13%
COCCn1c(N)c(Sc2ccc([N+](=O)[O-])cc2)c(=O)[nH]c1=O,-2%
O=C(CSc1nnc(CNc2ccc(F)cc2)o1)N1CCN(C(=O)c2ccco2)CC1,13%
Cc1cc(C)cc(NC(=O)c2oc3ccc4c(c3c2C)C(=O)CC(C)(C)O4)c1,2%
O=C(COCc1cc(-c2cccs2)on1)Nc1cc(C(F)(F)F)ccc1Cl,25%
CC(=O)c1ccc(N2CCN(S(=O)(=O)c3c(C)nc4sc(C)cn4c3=O)CC2)cc1,-6%
CCc1ccc(-c2nc(CS(=O)CC(=O)NCCc3ccc(C)cc3)c(C)o2)cc1 (stereo not given),9%
CN(Cc1c(F)cccc1Cl)C(=O)C1CC(=O)N(CCc2ccccc2)C1 (stereo not given),-2%
CCCCOC(=O)c1ccc(NC(=O)c2cc(-c3ccccc3)on2)cc1,10%
COc1ccc(NC(=O)CN(c2cccc(C(F)(F)F)c2)S(C)(=O)=O)cc1OC,-3%
Cc1ccc(S(=O)(=O)Nc2nc3ccccc3nc2Nc2cccc(S(=O)(=O)N3CCCC3)c2)cc1,13%
CC(C)N(Cc1ccccc1)C(=O)CN1C(=O)NC2(CCCc3ccccc32)C1=O (stereo not given),-2%
Cc1ccc(C(=O)C(C)OC(=O)CNS(=O)(=O)c2ccc(C)cc2)cc1 (stereo not given),9%
COC(=O)N1CCCc2cc(S(=O)(=O)NCc3ccccc3)ccc21,14%
O=C(c1cc(S(=O)(=O)NCc2ccco2)ccc1Br)N1CCOCC1,1%
COC(=O)C1=C(C)N(Cc2ccco2)C(=O)N[C@H]1c1ccc(Br)cc1,0%
Cn1nccc1NC(=O)Nc1cccc(Cl)c1,-5%
COc1ccc(OC)c(/C=N/NC(=O)C(=O)N/N=C/c2cc(OC)ccc2OC)c1,-3%
O=C(COc1ccc(S(=O)(=O)NC2CCCCC2)cc1)NCc1cccnc1,-11%
O=C(CC1Nc2ccccc2NC1=O)NCCCN1CCCCCC1 (stereo not given),-21%
O=C(O)c1ccccc1NCc1ccco1,-27%
CC(=O)c1cc(-c2ccccc2)n(CC(=O)NC2CCCCCC2)c1C,13%

# Molecules from the list above with an aryl methoxy group (17):
SMILES,VDR inh
COc1ccc(N2CCN(C3CCCN(C(=O)c4cccc(C)n4)C3)CC2)cc1 (stereo not given),14%
COc1ccc(C[C@@H]2OC3(C=CC(=O)C=C3)O[C@H]2Cc2ccc(OC)cc2)cc1,?
COc1ccc(CN(C)C(=O)COC(=O)c2ccc(-c3ccccc3)cc2)c(OC)c1OC,1%
COc1cccc2c1C(=O)CC1C2CCC2CC(=O)CCC21C (stereo not given),4%
COc1ccc([N+](=O)[O-])cc1NC(=O)c1cccnc1,1%
COC(=O)C1=CN(CC2CCCO2)C=C(C(=O)OC)C1c1cc(OC)c(OC)c(OC)c1 (stereo not given),9%
COc1ccc(C(=O)NNC(=O)CSc2nnnn2C)cc1,-12%
COc1cc(CSc2ncc(CO)n2Cc2ccc(C)cc2)cc(OC)c1,21%
COc1ccc2c(c1)O[C@@H](c1ccc3c(c1)OCO3)[C@H](OC(=O)NC1CCCC1)C2=O,6%
CCCc1oc2ccc(NS(=O)(=O)c3ccc(OC)cc3)cc2c1C(=O)OCC,21%
COc1ccc2sc3ccccc3c(=O)c2c1OC,3%
COc1ccc(CNC(=O)c2ccc3c(c2)N(Cc2ccccc2)C(=O)c2ccccc2S3=O)cc1 (stereo not given),-7%
COc1ccc(OC)c(NC(=O)CCNS(=O)(=O)c2cccs2)c1,6%
COc1ccc(-n2c(COc3cccc4ccccc34)nnc2SC(C)C(=O)O)cc1 (stereo not given),-7%
COc1ccc(-n2c(=O)c3c4c(sc3n3c(SC(C)C)nnc23)COC(C(C)C)C4)cc1 (stereo not given),4%
COc1ccc(NC(=O)CN(c2cccc(C(F)(F)F)c2)S(C)(=O)=O)cc1OC,-3%
COc1ccc(OC)c(/C=N/NC(=O)C(=O)N/N=C/c2cc(OC)ccc2OC)c1,-3%

# Screening results from PubChem.
